# NPYLR7 ag = mosquito NPYLR7 agonism. activation, % at 10 µM. HEK293T NPYLR7/Galpha15, GCaMP6s calcium fluorescence. 0.15% of 270,000 active; in the data active = activation above about 40%;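 note: 0% = vehicle and 100% = reference agonist at the receptor; some compounds past the cut are filed as inactive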
# NPYLR7 ag max-min = recorded beside NPYLR7 ag, whose call it bears; activation, %; measured here: Max-Min RFU normalised activation; some inactives read as strong as hits;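 span of the calcium signal over five minutes; 0% = vehicle and 100% = native peptide agonist; compound fluorescence can raise it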
# Starred values were filed as active, the others as inactive.
# Below each compound: NPYLR7 ag, NPYLR7 ag max-min
- Cc1ccccc1-c1cnc(C(O)c2ccc(F)cc2)[nH]1 (stereo not given)
 : -1.4, -1.5
- CCOC(=O)c1sc2nc[nH]c(=O)c2c1C
 : -7.7, -6.4
- O=C(O)c1c(Cl)cc(C(F)(F)F)cc1Cl
 : 4.4, 2.1
- Cc1ccccc1C(=O)Nc1ccc(C2SCC(=O)N2c2cccc(F)c2)cc1 (stereo not given)
 : -2.8, 4.4
- CC1Cc2cc(-c3cc(CNC(=O)c4cccs4)no3)ccc2O1 (stereo not given)
 : 1.9, 0.9
- Cc1ccc(-c2nc(C)c(C(C)C)c(N3CCNCC3)n2)cc1
 : -0.5, 13.5
- O=C(NCc1ccco1)C1Cc2cc(Cl)ccc2O1 (stereo not given)
 : -5.6, -7.2
- CC(C)[C@@H]1C[C@@H]2C[C@H](N(CC(=O)O)S(=O)(=O)c3cccs3)C[C@@H]2CO1
 : 8.1, 23.0
- CC(C(=O)N(C)C)N(C)Cc1cccc(C(=O)Nc2ccc[nH]c2=O)c1 (stereo not given)
 : -2.2, -13.0
- Cc1nc2sccn2c(=O)c1NC(=O)Nc1ccc(C(C)C)cc1
 : 0.5, -0.4
- COc1ccc(CCNC(=O)N2CCN(c3ncccc3C(=O)NCc3ccc(OC)cc3)CC2)cc1
 : 13.1, -1.1
- Clc1nc(NCc2ccco2)nc(Oc2ccccc2)n1
 : 5.8, 3.8
- O=C(C1COc2ccccc2O1)N(Cc1cccnc1)c1nc2ccc(Cl)cc2s1 (stereo not given)
 : -2.8, 5.0
- Cc1cccc(CC(CC(=O)N2CCC(n3c(=O)[nH]c4ccccc43)CC2)C(=O)N2CCC(n3c(=O)[nH]c4ccccc43)CC2)c1 (stereo not given)
 : -7.7, -11.8
- CCCCN(CC(=O)N(CCc1c[nH]c2ccccc12)Cc1ccccc1)C(=O)CCC(=O)OCC
 : 20.6, 15.8
- COc1ccc(OC)c(CNC(=O)NCC2(c3ccccc3)CC2)c1
 : 6.3, 5.0
- Cc1nnc(SCCn2c(N3CCCCCC3)nc3c2c(=O)[nH]c(=O)n3C)s1
 : -4.4, -6.0
- Cc1c(C(=O)NC2CCCC2)sc(=O)n1Cc1ccccc1F
 : 1.4, -3.8
- CCNC(=O)NC(=O)CSc1nnc(Nc2ccc(OC)cc2)s1
 : 5.7, 4.6
- CCOC1CCN(C(=O)[C@H](C(C)C)N(C)C)CC1
 : -2.7, -4.4
- COC1CCN(CCNC(=O)NC2CCc3c(F)cccc32)CC1 (stereo not given)
 : 2.1, -0.6
- CCCCN(C(=O)c1ccc2c(c1)NC(=O)CS2)c1ccccc1
 : -0.5, -1.7
- O=C(Nc1ccc2[nH]cc(CCN3CCc4ccccc4C3)c2c1)c1sc2ccccc2c1Cl
 : 13.1, 7.2
- CCNC(=O)N(CCN1CCOCC1)CC(=O)N(Cc1ccc2c(c1)OCO2)Cc1sccc1C
 : -10.7, -18.3
- CCOc1cccc(CN2CCN(Cc3cccs3)C(CCO)C2)c1O (stereo not given)
 : 10.2, 8.8
- CN(CC(=O)Nc1nccs1)Cc1ccc(Cl)c(Cl)c1
 : 3.2, 0.3
- COc1ccc(CCNC2CC(=O)N(c3ccc(C)cc3)C2=O)cc1OC (stereo not given)
 : -4.4, -11.5
- Cc1cc(C)cc(OCC(=O)NNC(=O)c2ccccc2Cl)c1
 : -3.5, -9.0
- CCCn1ncc(C(=O)N(C)Cc2ncc(C)c(OC)c2C)c1C
 : -3.5, -10.3
- CC(=O)NCc1ccc(S(=O)(=O)NC2CCC(C)(C)c3ccccc32)s1 (stereo not given)
 : 4.0, 3.4
- CCNC(=O)Nc1ccc(N(C)C)c(CN(CCOC)C(=O)c2cccc(F)c2)c1
 : 6.5, 6.5
- CNC(=O)C1CCN(Cc2cccc(C(=O)Nc3ccc4[nH]ncc4c3)c2)C1 (stereo not given)
 : -3.3, -4.3
- O=C(Nc1cccc(Cl)c1)NC1CCN(c2ccccc2C(=O)N2CCc3ccccc3C2)CC1
 : 24.1, 12.2
- CCOC(=O)C1CCCCN1CC(=O)N1N=C(c2ccccc2Cl)CC1c1ccc(OCC)cc1 (stereo not given)
 : 1.6, 4.2
- C#CCCC(=O)N(Cc1sccc1C)CC(C)C
 : 2.8, -8.2
- CCOc1ccc(OCC(=O)Nc2ccc(Br)c(C)n2)cc1
 : -3.4, -5.5
- Cc1ccc(-c2nn(CC(=O)Nc3ccc(C(N)=O)cc3)c(=O)c3nc(C)sc23)c(C)c1
 : 0.9, 0.0
- CCCCN(C(=O)CSC(=N)N)c1c(N)n(CC(C)C)c(=O)[nH]c1=O
 : 3.6, 3.1
- CCN(Cc1ccccc1)C(=O)CCN1CCOC(C(F)(F)F)C1 (stereo not given)
 : 5.7, 3.3
- Cn1cc(S(=O)(=O)Oc2ccc3ccccc3c2)c(=O)n(C)c1=O
 : -1.8, -4.4
- Cc1nc(-n2nc(-c3cccs3)cc2NC(=O)c2cccs2)[nH]c(=O)c1C
 : 4.8, 4.0
- CCCn1c(N)c(C(=O)CN2CCCCC2)c(=O)n(C)c1=O
 : -4.2, -2.9
- O=C(NCCn1ncc2c(N3CCCCCC3)ncnc21)C1CC(=O)N(c2ccccc2)C1 (stereo not given)
 : 2.0, 0.1
- NC(=O)c1cccc(S(=O)(=O)Nc2ccsc2)c1
 : -0.1, -1.3
- O=C(CSc1ncnc2c1nnn2Cc1ccccc1)NC1CCCC1
 : -0.2, 26.9
- O=C(Nc1cccc(S(=O)(=O)N2CCCC2)c1)c1cccc2ncccc12
 : 4.7, 1.6
- CCCCCn1nc(C(=O)NNS(=O)(=O)c2cccc(F)c2)c2ccccc2c1=O
 : -1.6, -1.6
- Cc1cc(CNC(=O)c2snnc2C)c2[nH]c(C)c(C)c2c1
 : 3.1, 0.1
- CCOC(=O)c1cnc2ccc(Cl)cc2c1N
 : 4.5, 4.3
- CC(C)Cc1nc(N2CCN(C(=O)COCc3ccccc3)CC2)c2c(-c3cccc(Oc4ccccc4)c3)noc2n1
 : 19.9, 2.8
- Cc1noc(-c2ccccc2Cl)c1C(=O)NCC1COC(C)(C)O1 (stereo not given)
 : 0.8, 13.4
- CCN(CC)C(=O)Oc1ccc2c(ccn2Cc2cc(F)ccc2C)c1-c1ccc(OC)cc1
 : 14.1, 13.9
- COc1ccc(CCC2CCCN(C(=O)CCc3cc(=O)[nH]o3)C2)cc1 (stereo not given)
 : 8.3, 6.2
- Cc1ccc(N=Nc2c(-c3ccccc3)[nH]n(-c3nc(-c4ccccc4)cs3)c2=O)c(C)c1
 : 10.9, 20.4
- Cc1cc(=O)n2c(-c3cccc(NS(=O)(=O)c4ccc(C)s4)c3)csc2n1
 : -4.2, -4.2
- CCC(c1nc2ccccc2c(=O)n1-c1cccc(Cl)c1)N(CC)C(=O)/C=C/c1ccccc1 (stereo not given)
 : 5.4, -1.3
- NC(=O)C1CCCN(C(=O)COc2cccc(Cl)c2)C1 (stereo not given)
 : -1.1, 0.2
- CCOc1ccccc1-c1cc(C)cnc1-n1cnnc1
 : 0.6, 0.0
- COc1cccc(C(NC(C)=O)c2nc(-c3cnn(C)c3)cs2)c1 (stereo not given)
 : 12.8, 9.0
- CC(C)(C)n1ncc2c(=O)n(NC(=O)COc3ccc(F)cc3)cnc21
 : 17.6, 16.7

# (list continues)
# Below each compound: NPYLR7 ag, NPYLR7 ag max-min
- CCN1CCc2cc(OC)c(OC)cc2C1C(NC(=O)CC(C)C)C(C)C (stereo not given)
 : -4.6, 2.6
- CC(=O)Cn1c(=O)c2c(nc3n(-c4ccc(F)cc4)c(-c4ccccc4)cn23)n(C)c1=O
 : 6.7, 6.5
- O=C(N=Nc1c(O)[nH]c2ccc(Br)cc12)c1ccc[n+]([O-])c1
 : 7.3, 10.3
- CC(NC(=O)c1cc(Cl)ccc1NS(C)(=O)=O)c1ccc2c(c1)OCO2 (stereo not given)
 : 7.1, 5.3
- CC(NC(=O)CC1Oc2ccccc2NC1=O)c1ccc2c(c1)OCCO2 (stereo not given)
 : -3.7, -5.0
- CCOC(=O)c1[nH]ncc1CN1CCCC(N2CCc3cc(OC)c(OC)cc3C2)C1 (stereo not given)
 : 16.2, 7.0
- CCc1nc(NC2CCCCC2)c2ccc(Cl)cc2n1
 : 1.4, 8.8
- CCn1ccc2ccc(NC(=O)N3CCN(C)C(=O)C3)cc21
 : -4.2, -3.8
- COc1cc(/C=C\C(=O)Nc2c3c(nn2-c2ccc(F)cc2)CS(=O)(=O)C3)cc(OC)c1OC
 : -0.3, -2.1
- Cc1noc(C)c1CN(C)C(=O)Nc1cnn(CC(C)C)c1
 : -20.9, -21.7
- Cc1nc(SCC(=O)Nc2ccccc2)c2c3c(sc2n1)CCC3
 : -7.5, -12.8
- CCCCCCn1c(SCC(=O)OC)nc2c1c(=O)[nH]c(=O)n2C
 : 0.8, 23.5
- Cc1cc(C)nc(NNC(=O)C2CCCN(c3nc4ccccc4s3)C2)n1 (stereo not given)
 : 0.1, 8.8
- COc1ccc(NC(=O)c2c(-c3ccccc3Cl)noc2C)cc1
 : 2.5, 2.0
- O=C(NNc1cccc(C(F)(F)F)c1)C1CC(=O)N(Cc2ccco2)C1 (stereo not given)
 : 17.7, 13.5

# Record cards, as listed above.
# `Cc1noc(C)c1CN(C)C(=O)Nc1cnn(CC(C)C)c1` across the screens: NPYLR7 ag = -20.9; NPYLR7 ag max-min = -21.7
# `Cc1cc(C)nc(NNC(=O)C2CCCN(c3nc4ccccc4s3)C2)n1` (stereo not given) across the screens: NPYLR7 ag = 0.1; NPYLR7 ag max-min = 8.8

# (list continues)
# Below each compound: NPYLR7 ag, NPYLR7 ag max-min
- Cc1ccccc1OCC(O)Cn1nc2c(cc1=O)CCC2 (stereo not given)
 : 2.9, 0.3
- CC(COc1ccccc1)NCCN(C)S(C)(=O)=O (stereo not given)
 : 1.8, 0.5
- Cc1cccc(C(=O)NCCCN(C)c2ccccc2)c1
 : -5.7, -10.8
- O=C1c2ccccc2C(=O)c2c(NC3CCCCC3)c(Sc3ccccc3)c(Sc3ccccc3)c(NC3CCCCC3)c21
 : 9.7, 24.3
- CC1=C(C(=O)N2CCc3c([nH]c4ccccc34)C2c2ccccc2F)OCCO1 (stereo not given)
 : 1.5, -0.1
- O=S(=O)(Cc1ccccc1)NCc1ccc(-c2cccc(F)c2)c2ccncc12
 : 3.7, -0.2
- COc1ccc(CC(=O)N(Cc2ccccc2)Cc2nc3cc(Cl)ccc3o2)cc1
 : -2.6, -12.3
- CCOc1ccccc1N1C(=O)CSC1c1cccc(NC(=O)c2ccco2)c1 (stereo not given)
 : -3.5, 2.2
- CN(c1ccc(CNC(=O)C2CCOC2)cc1)C1CCCCC1 (stereo not given)
 : -4.1, -3.8
- C=CCn1c(C)c(CC)c(C)c1C(=O)NC(C)C
 : 3.1, 9.2
- Cn1c(=O)[nH]c2c(nc(-c3ccc(Cl)cc3)n2CCc2ccccc2)c1=O
 : 8.6, 8.8
- COc1cc(NC(=O)c2cc(F)ccc2Br)cc(OC)c1OC
 : 5.0, 1.1
- O=C1OC(c2ccccc2)=N/C1=C\c1ccc(-c2cccc([N+](=O)[O-])c2)o1
 : -5.1, -8.5
- CC(=O)N1CCC(N2CCCC(CCc3cccc(C(F)(F)F)c3)C2)CC1 (stereo not given)
 : 4.8, 1.2
- CC(=O)Nc1ccc(-c2cnccc2C)cc1
 : 17.9, 8.1
- NC(N)=NN=Cc1cc(Br)c(O)c(Br)c1
 : -4.9, -5.4
- Cc1[nH]n2c(=O)c3c(nc2c1-c1ccc(F)cc1)CCCC3
 : -4.7, -6.5
- CCN(Cc1cccs1)C(=O)c1n[nH]c2ccccc12
 : 4.0, -0.1
- O=S(=O)(c1ccc2ncn(O)c2c1)C(F)(F)F
 : -0.3, 1.1
- CCc1nc2ccc(C(=O)N3CCC(O)(Cc4ccccc4)CC3)cn2c1N(CC)C(=O)CCC1CCCC1
 : 11.7, 9.6
- CN(C)CC(O)Cn1c2ccccc2c2ccccc21 (stereo not given)
 : 1.3, -0.5
- CC1CCN(c2ccc(Br)cn2)CC1n1ccnc1 (stereo not given)
 : 2.9, 0.4
- Cc1cccc2c(=O)[nH]c(Cn3nnn(-c4cccs4)c3=O)nc12
 : -2.0, -2.7
- COc1ccc(CCC(=O)NCc2cn(C)nc2C)cc1
 : 1.2, -0.3
- COc1ccc(S(=O)(=O)N2CCC(Cc3ccccc3)CC2)cc1N1CCN(C(=O)C(C)Oc2ccccc2)CC1 (stereo not given)
 : 13.6, 3.4
- Cc1cccc(NC(=O)C(NC(=O)NCc2ccc(F)cc2)C(C)C)c1C (stereo not given)
 : 5.1, 3.3
- O=C(c1ccc(C(F)(F)F)cc1)N1CCN(c2nc(-c3ccc(Cl)cc3)nc3ccccc23)CC1
 : 3.6, 17.7
- COCCCNC(=O)C(C#N)=Cc1ccc(-c2ccccc2Cl)o1
 : 6.2, 8.0
- O=C(CSc1nc(=O)n(CC2CCCO2)c2c1CCCC2)NCc1ccc(F)cc1 (stereo not given)
 : -7.3, -11.9
- CCCCCNC(=O)c1cc(-c2cccc(OC)c2)nc2cc(C(C)(C)C)nn12
 : 11.9, 14.9
- CCn1c(SCC(=O)N2C(C)CCCC2C)nnc1-c1ccncc1 (stereo not given)
 : -11.4, -9.2
- Cc1nc(C(=O)N2CCOC(Cc3ccc(F)cc3)C2)cs1 (stereo not given)
 : 12.6, 3.3
- CCCC1CCc2nc(NC(=O)c3cccc(CS(C)=O)c3)sc2C1 (stereo not given)
 : -0.5, 36.8
- COc1cccc(COC(CN2CCN(S(=O)(=O)Cc3ccccc3)CC2)c2ccc(Cl)cc2)c1 (stereo not given)
 : -1.9, 0.3
- CCSc1nc(C)c(-c2csc(C(C#N)=C3CCCC3)n2)cc1C#N
 : 5.4, 6.2
- COCCN(Cc1ccc(OS(=O)(=O)c2cccc(C(F)(F)F)c2)cc1)C(=O)C1CC1
 : -6.0, -3.9
- Cc1cnn(-c2cnn3cccnc23)c1
 : 29.8, 20.3
- Cn1nc(NC(=O)Cc2noc3ccccc23)c2c1NC(=O)CC2c1cccs1 (stereo not given)
 : -18.2, -22.1
- N#CCSCC(=O)NC1CCC(C(F)(F)F)CC1 (stereo not given)
 : -6.4, -2.0
- Cc1ccc2c(C)c(C(=O)N(C)Cc3nnc(-c4ccccc4)o3)oc2c1
 : 11.2, 6.5
- O=C(NCc1cccs1)C1CC=CCC1C(=O)N1CCN(c2ccccn2)CC1 (stereo not given)
 : -5.6, -14.2

# The list is partial (hit frequency here may not be typical).
